Assay outcomes (PubChem)
Hedgehog inh: Sonic Hedgehog pathway inhibition | Shh-LIGHT2 Gli-luciferase reporter, 30 h | inhibition, % (no concentration beside the values) | 2.1% of 22,000 active | AID 2313;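 active = replicate mean of 65% or more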;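 note: pathway switched on by Shh-conditioned medium diluted 1 in 25 in low serum; 100 nL library stock added to about 40 µL; 0% = median of neutral wells and 100% = positive control level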
MITF inhib: inhibitors of MITF | 0.28% of 37,000 active | AID 2240 | TRPM1 promoter luciferase, luminescence, 24 h | inhibition, % (test concentration not listed);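 active = most replicates at 85% or more, or half of them and the mean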;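 note: human melanocyte line stably carrying TRPM1 promoter luciferase reporter; 0% = vehicle wells and 100% = a positive control; the first replicate is given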
PD-1 reverse act: reversal of PD-1 mediated T-cell inhibition; 29,000 tested, under 10 active; activation, % (concentration not given with the values); primary human CD4 T cells, PD-L1 beads, CellTiter-Glo 96 h; AID 2316;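 active = replicate mean of 50% or more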;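 note: 0% = median vehicle wells and 100% = positive control; 100 nL library stock added to about 50 µL; numbers are from one replicate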
YB-1 expr inh: YB-1 expression inhibition | 0.37% of 30,000 active | U2OS, qRT-PCR YB-1 vs CDIP delta delta Cp, 16 h; active compounds read high; zero = DMSO, each unit about twofold | delta delta Cp (YB-1 minus CDIP) (no concentration beside the values);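 active = delta delta Cp rounded down to an integer at or above 3, about 3 SD of DMSO wells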;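 note: higher means less YB-1 transcript or more CDIP transcript relative to DMSO; stock transfer was 100 nL into about 100 µL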
Numbers without * were called inactive; nt = no result given. An excerpt. The share of hits here may be higher or lower than overall.

Results follow in this order: MITF inhib	PD-1 reverse act	Hedgehog inh	YB-1 expr inh
1) C[C@H]1CN([C@@H](C)CO)C(=O)c2cccc(NS(=O)(=O)c3ccc(Cl)cc3)c2O[C@@H]1CN(C)C(=O)Nc1ccc2c(c1)OCO2
    -0.5	0.9	-3.2	0.0166
2) COc1ccc(NC(=O)N(C)C[C@@H]2Oc3ccc(N(C)C)cc3C(=O)N([C@@H](C)CO)C[C@H]2C)cc1
    -0.7	nt	-5.8	0.419
3) CC(C)NC(=O)Nc1ccc2c(c1)C(=O)N([C@H](C)CO)C[C@H](C)[C@@H](CN(C)S(=O)(=O)c1cn(C)cn1)O2
    -1.2	nt	-16.1	0.161
4) O=C(COc1ccc(C2CCCCC2)cc1)Nc1cccc(-c2nc3ncccc3o2)c1
    -73.6	1.2	nt	nt
5) Cc1ccc([N+](=O)[O-])cc1N(CC(=O)Nc1ccc(I)cc1)S(C)(=O)=O
    10.5	-0.2	nt	nt
6) Cc1noc(C)c1NC(=O)N(C)C[C@@H]1OCCCC[C@@H](C)Oc2ccc(NS(=O)(=O)c3ccc(Cl)cc3)cc2C(=O)N([C@H](C)CO)C[C@@H]1C
    -5.9	2.4	61.4	-0.832
7) Cc1noc(C)c1NC(=O)Nc1ccc2c(c1)C(=O)N([C@H](C)CO)C[C@@H](C)[C@H](CN(C)C(=O)Nc1ccccc1)O2
    -4.0	0.7	nt	0.066
8) C[C@H](CO)N1C[C@H](C)[C@H](CN(C)C(=O)Nc2cccc3ccccc23)Oc2ccc(NS(=O)(=O)c3ccccc3)cc2CC1=O
    -12.2	nt	nt	-0.19
9) O=C(CSc1nc2ccccc2c(=O)[nH]1)Nc1ccc(Br)cc1
    -6.3	1.8	nt	nt
10) C[C@@H]1CN([C@@H](C)CO)C(=O)c2cccc(NS(=O)(=O)c3ccc(F)cc3)c2O[C@@H]1CN(C)CC1CC1
    -3.5	1.8	-57.6	-0.815
11) Cc1noc(C)c1NC(=O)N(C)C[C@H]1Oc2ccc(NC(=O)Cc3ccccc3)cc2C(=O)N([C@@H](C)CO)C[C@H]1C
    -17.5	-1.1	-22.5	-0.13
12) C[C@@H]1CN([C@H](C)CO)C(=O)c2cccc(NC(=O)c3ccncc3)c2O[C@H]1CN(C)CC1CCCCC1
    1.2	-0.6	5.1	-0.679
13) C[C@H](CO)N1C[C@H](C)[C@H](CN(C)Cc2ccc3c(c2)OCO3)Oc2ccc(NC(=O)Nc3cccc4ccccc34)cc2C1=O
    0.4	nt	nt	-0.264
14) C[C@@H]1CN([C@H](C)CO)C(=O)c2cc(NC(=O)CCN3CCOCC3)ccc2O[C@H]1CN(C)Cc1ccc(-c2ccccc2)cc1
    -5.4	-1.0	nt	0.574
15) C/C=C1/[C@H](O[C@@H]2O[C@H](CO)[C@@H](O)[C@H](O)[C@H]2O)OC=C(C(=O)OC)[C@H]1CC(=O)OCCc1ccc(O)cc1
    -3.7	0.3	-2.3	-0.222
16) Cc1ccc2c(CC(=O)Nc3cccc([N+](=O)[O-])c3)coc2c1C
    -41.6	-2.8	nt	nt
17) Cc1ccc(NC(=O)CNS(=O)(=O)c2ccccc2)c(C)c1
    -26.9	0.5	nt	nt
18) O=C(CN1C(=O)COc2ccc(Cl)cc21)Nc1ccc([N+](=O)[O-])cc1
    38.8	-3.8	nt	nt
19) C[C@@H]1CN([C@H](C)CO)C(=O)c2cccc(NC(=O)C3CCOCC3)c2O[C@@H]1CN(C)S(=O)(=O)c1ccc(Cl)cc1
    -2.3	1.2	11.8	-0.00787
20) Cc1ccc(S(=O)(=O)Nc2cccc3c2O[C@@H](CN(C)Cc2ccc(Oc4ccccc4)cc2)[C@H](C)CN([C@H](C)CO)C3=O)cc1
    23.0	0.4	-29.6	-0.411

More compounds follow:
Results follow in this order: MITF inhib	PD-1 reverse act	Hedgehog inh	YB-1 expr inh
21) O=C(OCC1=C[C@@H](O)[C@@H]2C=CO[C@@H](O[C@@H]3O[C@H](CO)[C@@H](O)[C@H](O)[C@H]3O)[C@H]12)c1ccc(O)cc1
    3.8	1.0	-43.7	0.382
22) C[C@@H]1CN([C@H](C)CO)C(=O)c2cc(NC(=O)Nc3cccc4ccccc34)ccc2O[C@@H]1CN(C)Cc1ccccc1
    10.7	nt	10.8	0.13
23) C[C@@H]1CN([C@@H](C)CO)C(=O)c2cccc(NC(=O)c3ccc(-c4nccs4)cc3)c2O[C@H]1CN(C)Cc1ccc2c(c1)OCO2
    21.9	-4.0	-40.7	-0.392
24) C[C@H](CO)N1C[C@H](C)[C@@H](CN(C)Cc2ccc(-c3ccccc3)cc2)Oc2ccc(NC(=O)NC3CCCCC3)cc2C1=O
    -2.4	-0.8	nt	0.116
25) CO[C@H]1C[C@H](O[C@H]2[C@H](C)[C@@H](O[C@@H]3O[C@H](C)C[C@H](N(C)C)[C@@H]3OC(C)=O)[C@@H](C)C[C@]3(CO3)C(=O)[C@H](C)[C@@H](OC(C)=O)[C@@H](C)[C@@H](C)OC(=O)[C@@H]2C)O[C@@H](C)[C@@H]1OC(C)=O
    -3.9	0.7	-17.0	0.451
26) C[C@H](CO)N1C[C@H](C)[C@@H](CN(C)CC2CCCCC2)Oc2c(NS(=O)(=O)c3ccc(F)cc3)cccc2C1=O
    -8.7	2.1	4.0	-0.137
27) COc1ccc(CN(C)C[C@@H]2Oc3c(NC(=O)Nc4ccc(F)cc4)cccc3C(=O)N([C@@H](C)CO)C[C@H]2C)cc1
    17.7	-5.0	29.6	-0.34
28) COc1ccc(NC(=O)Nc2ccc3c(c2)C(=O)N([C@H](C)CO)C[C@H](C)[C@@H](CN(C)Cc2ccc(Cl)c(Cl)c2)O3)cc1
    3.6	-0.8	11.4	0.485
29) COC(=O)/C=C1/C(=O)N/C(=N\c2nc(C)cc(C)n2)N1c1cccc(C)c1
    -15.3	-0.1	24.4	-0.126
30) Cc1cc(C)c(OCC(O)Cn2cnc3ccccc32)c(C)c1 (stereo unspecified)
    4.8	-1.1	nt	nt
31) COc1ccc(OCC(=O)Nc2ccc(NC(=O)c3ccco3)c(OC)c2)cc1
    -20.4	1.1	nt	nt
32) CCc1cccc(CC)c1NC(=O)COc1ccccc1C(=O)N1CCOCC1
    27.1	0.5	-15.1	-0.246
33) Cc1ccc(S(=O)(=O)Nc2ccc3c(c2)C(=O)N([C@H](C)CO)C[C@H](C)[C@@H](CN(C)S(=O)(=O)c2ccc(C)cc2)O3)cc1
    0.3	0.7	nt	-0.106
34) c1ccc(-c2cc3ccsc3o2)cc1
    2.8	-0.5	-0.8	-0.411
35) Cc1ccc(S(=O)(=O)Nc2cccc3c2O[C@H](CN(C)Cc2ccc(Cl)c(Cl)c2)[C@H](C)CN([C@H](C)CO)C3=O)cc1
    21.9	-2.9	40.0	-0.252
36) C[C@H](CO)N1C[C@H](C)[C@@H](CN(C)C(=O)Nc2cccc3ccccc23)Oc2c(NC(=O)c3cnccn3)cccc2C1=O
    -8.1	-0.4	-15.3	-0.266
37) Cc1ccc(-c2nn(C)c(=O)c3ccccc23)cc1S(=O)(=O)N1CCN(CCO)CC1
    -1.1	0.6	nt	nt
38) Cc1ccc(S(=O)(=O)Nc2cccc3c2O[C@@H](CN(C)C(=O)Nc2ccc4c(c2)OCO4)[C@H](C)CN([C@@H](C)CO)C3=O)cc1
    -7.6	nt	-3.7	0.0372
39) COc1ccc(S(=O)(=O)N(C)C[C@@H]2Oc3c(NS(=O)(=O)c4cccs4)cccc3C(=O)N([C@H](C)CO)C[C@@H]2C)cc1
    -10.0	-0.1	-0.1	-0.797
40) C[C@@H]1CN([C@@H](C)CO)C(=O)c2cc(NC(=O)C3CC3)ccc2O[C@H]1CN(C)Cc1ccc(C(=O)Nc2ccccc2N)cc1
    -1.7	-3.2	nt	0.0385

Other entries follow.
Results follow in this order: MITF inhib	PD-1 reverse act	Hedgehog inh	YB-1 expr inh
41) O=S(=O)(Cc1ccc(Cl)cc1)CC(O)COc1ccc(F)cc1 (stereo unspecified)
    11.9	0.6	-35.3	0.194
42) COc1ccc(CN(C)C[C@H]2Oc3ccc(NS(=O)(=O)c4ccc(C)cc4)cc3C(=O)N([C@@H](C)CO)C[C@@H]2C)cc1
    -1.8	4.9	nt	0.225
43) S=c1nc2c(cnn2-c2ccccc2)c(Nc2ccccc2)[nH]1
    2.8	2.2	-7.5	-0.473
44) Cc1ccc(S(=O)(=O)Nc2cccc3c2O[C@@H](CN(C)Cc2ccccc2)[C@H](C)CN([C@H](C)CO)C3=O)cc1
    20.6	nt	2.1	-0.174
45) C[C@@H]1CN([C@H](C)CO)C(=O)Cc2cc(NC(=O)C3CC3)ccc2O[C@H]1CN(C)Cc1ccc2c(c1)OCO2
    3.0	0.2	7.8	0.166
46) O=C(Nc1ccc(I)cc1C(=O)NCc1cccnc1)c1ccccc1Cl
    3.3	0.7	nt	nt
47) Cc1onc(-c2c(Cl)cccc2Cl)c1C(=O)NC(=S)N1CCOCC1
    15.4	-1.6	-12.9	-0.186
48) COc1ccc(NC(=O)CSc2nnc(-c3cccc(Cl)c3)n2C)cc1
    -14.7	-0.5	nt	nt
49) COc1ccc(NC(=O)N(C)C[C@H]2Oc3ccc(NS(C)(=O)=O)cc3C(=O)N([C@H](C)CO)C[C@@H]2C)cc1
    1.8	nt	3.4	0.0306
50) C[C@@H]1CN([C@@H](C)CO)C(=O)Cc2cc(NS(=O)(=O)c3ccc(Cl)cc3)ccc2O[C@@H]1CN(C)S(=O)(=O)c1ccc(Cl)cc1
    16.5	-1.4	13.8	0.0456
51) Cc1noc(C)c1NC(=O)N(C)C[C@H]1Oc2c(NC(=O)Nc3ccccc3)cccc2C(=O)N([C@H](C)CO)C[C@H]1C
    -5.4	1.6	-5.4	0.641
52) C[C@H](CO)N1C[C@H](C)[C@H](CN(C)Cc2ccc(C(F)(F)F)cc2)Oc2c(NC(=O)c3nc4ccccc4s3)cccc2C1=O
    35.3	-7.2	-1.6	0.118
53) COc1ccc(CN(C)C[C@H]2Oc3ccc(NC(=O)Nc4c(C)noc4C)cc3C(=O)N([C@@H](C)CO)C[C@H]2C)cc1
    13.5	0.4	-65.7	-0.472
54) C[C@@H]1CCCCO[C@@H](CN(C)Cc2ccc(C(F)(F)F)cc2)[C@@H](C)CN([C@H](C)CO)C(=O)c2cc(NC(=O)Nc3ccc(F)cc3)ccc2O1
    3.7	nt	3.8	0.261
55) C[C@@H]1CN([C@@H](C)CO)C(=O)Cc2cc(N(C)C)ccc2O[C@@H]1CN(C)C(=O)Nc1ccc(F)cc1
    -2.1	nt	-19.9	0.101
56) C[C@@H]1CN([C@H](C)CO)C(=O)Cc2cc(NC(=O)Nc3ccc(F)cc3)ccc2O[C@H]1CN(C)Cc1ccc(-c2ccccc2)cc1
    5.0	-4.2	0.4	0.131
57) C[C@@H]1CN([C@@H](C)CO)C(=O)Cc2cc(NS(=O)(=O)c3ccc(Cl)cc3)ccc2O[C@@H]1CN(C)C(=O)Nc1ccc2c(c1)OCO2
    -9.2	-1.2	-12.2	-0.138
58) O=C(CCSc1nnnn1-c1ccccc1)N1CCOCC1
    -46.6	0.8	nt	nt
59) C[C@@H]1CN([C@H](C)CO)C(=O)Cc2cc(NC(=O)Nc3ccc4c(c3)OCO4)ccc2O[C@@H]1CN(C)C(=O)NC1CCCCC1
    -1.0	1.8	-14.7	-0.44
60) Cc1cccc(C)c1OCC(=O)Nc1ccc(O)cc1C(=O)O
    5.6	0.6	nt	nt

Shown with one line to a screen: entries from further up.
45: C[C@@H]1CN([C@H](C)CO)C(=O)Cc2cc(NC(=O)C3CC3)ccc2O[C@H]1CN(C)Cc1ccc2c(c1)OCO2
46: O=C(Nc1ccc(I)cc1C(=O)NCc1cccnc1)c1ccccc1Cl

assay / entry	45	46
MITF inhib	3.0	3.3
PD-1 reverse act	0.2	0.7
Hedgehog inh	7.8	nt
YB-1 expr inh	0.166	nt

Next entries follow.
Results follow in this order: MITF inhib	PD-1 reverse act	Hedgehog inh	YB-1 expr inh
61) C[C@@H]1CN([C@@H](C)CO)C(=O)c2cc(NC(=O)Cn3cnnn3)ccc2O[C@@H]1CN(C)Cc1ccc(C(=O)Nc2ccccc2N)cc1
    -7.2	0.3	nt	-0.309
62) C[C@H]1CN([C@@H](C)CO)C(=O)c2cc(NC(=O)Nc3cccc4ccccc34)ccc2O[C@@H]1CN(C)C(=O)Nc1cccc2ccccc12
    0.6	-0.5	-4.4	-0.0159
63) Cc1cccc(NC(=O)CSc2nc3c(cc2C#N)CCCCC3)c1
    0.0	-3.0	nt	nt
64) CNC[C@@H]1Oc2ccc(NS(=O)(=O)c3ccc(C)cc3)cc2C(=O)N([C@@H](C)CO)C[C@@H]1C
    -4.8	1.6	-24.7	-0.269
65) Cc1cc(C(=O)Nc2cccc3c2O[C@@H](CN(C)S(=O)(=O)c2ccccc2)[C@@H](C)CN([C@@H](C)CO)C3=O)n(C)n1
    -7.2	1.5	3.3	-0.17
66) Cc1ccc(S(=O)(=O)Nc2cccc3c2O[C@@H](CN(C)Cc2ccc(C(=O)Nc4ccccc4N)cc2)[C@@H](C)CN([C@@H](C)CO)C3=O)cc1
    30.5	-1.2	nt	-0.435
67) CCn1c(SCc2nc(-c3cccs3)no2)nnc1-c1cccs1
    -6.6	2.8	nt	nt
68) O=C(NCc1ccco1)C1CCCN(S(=O)(=O)c2ccc(F)cc2)C1 (stereo unspecified)
    -8.5	3.1	nt	nt
69) Cc1noc(C)c1NC(=O)N(C)C[C@H]1Oc2ccc(NC(=O)Nc3ccccc3)cc2C(=O)N([C@H](C)CO)C[C@@H]1C
    0.9	nt	-34.2	-0.0656
